# Vaccinia inh: blocks a specific stage of Vaccinia orthopoxvirus infection, primary screen, cell-based, single point | Vaccinia-infected cells, mCherry/Venus stage reporter fluorescence; hits give low values; some inactives read as strong as hits | activity change (mCherry), % (no concentration beside the values) | 0.01% of 89,000 active;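 active means mCherry past -33% and 40 or more points under the early reporter, replicates agreeing; inconclusive means past -33% without that gap or agreement; tested in A549 cells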;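 further: scaled between vehicle wells and reference inhibitor wells; 23 nL library stock went into each well; one replicate is shown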
# Vaccinia inh Venus: also measured in Vaccinia inh; calls as there; activity change (Venus), %; measured here: Venus reporter, other viral stage;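 negative = less Venus signal; first of two replicates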
# An asterisk follows results filed as active; u = inconclusive; x = no result given. These rows are one share of the data, so the mix of outcomes need not match the whole.
SMILES,Vaccinia inh Venus,Vaccinia inh
O=C(C[C@@H]1C[C@@H]2c3cc(NS(=O)(=O)c4ccc(F)cc4)ccc3O[C@@H]2[C@H](CO)O1)NCc1ccc(Cl)cc1,-7.7,-12.9
COc1cccc(NC(=O)Nc2ccc3c(c2)C(=O)N(C)C[C@H](OC)[C@H](C)CN(CC2CC2)[C@H](C)CO3)c1,3.1,-8.6
CNC[C@H]1Oc2ncc(-c3ccc(C)cc3)cc2C(=O)N([C@@H](C)CO)C[C@H]1C,x,u
COCC(=O)N(C)C[C@@H]1Oc2ncc(-c3ccc(C#N)cc3)cc2C(=O)N([C@@H](C)CO)C[C@H]1C,6.9,12.8
CC(C)NC(=O)N1C[C@@H]2[C@H](c3ccccc31)[C@@H](CO)N2C(=O)c1ccccn1,0.5,8.8
CNC[C@H]1Oc2ccc(NC(=O)CCC(F)(F)F)cc2CC(=O)N([C@H](C)CO)C[C@H]1C,6.9,13.5
Cn1cnc(CCNC(=O)C[C@H]2CC[C@H]3[C@@H](COC[C@@H](O)CN3C(=O)C3CC3)O2)c1,13.3,9.6
CC(C)NC(=O)N(C)C[C@@H]1Oc2ccc(NC(=O)Nc3ccc4c(c3)OCO4)cc2C(=O)N([C@@H](C)CO)C[C@@H]1C,3.4,9.6
O=C(OC[C@@H]1[C@H]2c3ccccc3O[C@]1(CO)N=C1Sc3ccc([N+](=O)[O-])cc3C(=O)N12)c1ccccc1,9.4,10.4
CCCNC(=O)N1[C@@H]2c3ccc(-c4ccccc4OC)c(=O)n3C[C@H]1[C@H](CO)[C@H]2C(=O)OC,8.9,9.2
C[C@H](CO)N1C[C@H](C)[C@H](CN(C)Cc2ccc3c(c2)OCO3)OCc2ccccc2-c2ccccc2C1=O,-25.5,-32.8
O=C(C[C@@H]1CC[C@H]2[C@@H](COC[C@@H](O)CN2C(=O)Nc2cc(Cl)cc(Cl)c2)O1)N1CCOCC1,4.0,-3.8
CCCC#Cc1cnc2c(c1)C(=O)N([C@H](C)CO)C[C@@H](C)[C@@H](CN(C)C(=O)C1CC1)O2,1.5,-1.0
COc1cccc(NC(=O)C[C@@H]2CC[C@@H]3[C@H](COc4ccc(NC(=O)c5ccccc5F)cc4C(=O)N3C)O2)c1,-11.6,-7.3
CCC(=O)N1[C@H](CO)[C@H](c2ccc(C#CC3CCCC3)cc2)[C@@H]1CNC(C)C,-6.7,-17.4
O=C(Cc1ccccn1)NCC[C@@H]1CC[C@H](NC(=O)CN2CCOCC2)[C@@H](CO)O1,8.8,8.0
C[C@@H]1CN([C@@H](C)CO)C(=O)c2cc(NC(=O)Nc3ccccc3)ccc2O[C@H]1CN(C)S(=O)(=O)c1ccc(F)cc1,-1.1,0.6
Cc1noc(C)c1S(=O)(=O)N(C)C[C@H]1OCCCC[C@@H](C)Oc2ccc(NS(=O)(=O)c3ccc(Cl)cc3)cc2C(=O)N([C@H](C)CO)C[C@@H]1C,7.0,9.0
COc1ccccc1-c1ccc([C@H]2[C@@H](CO)N(C(=O)C3CC3)[C@H]2C#N)cc1,10.9,9.5
C[C@H](CO)N1C[C@H](C)[C@@H](CN(C)Cc2ccc3c(c2)OCO3)Oc2c(NC(=O)Nc3ccc(F)cc3)cccc2C1=O,-8.7,9.9
CC(C)CC#Cc1cnc2c(c1)C(=O)N([C@@H](C)CO)C[C@@H](C)[C@@H](CN(C)C(=O)C1CCOCC1)O2,-13.5,-6.8
C/C=C/c1cnc2c(c1)C(=O)N([C@H](C)CO)C[C@H](C)[C@@H](CN(C)C(=O)Cc1cccnc1)O2,8.4,26.1
C[C@@H]1CCCCO[C@H](CN(C)C(=O)C2CCCCC2)[C@H](C)CN([C@@H](C)CO)C(=O)c2cc(NC(=O)Nc3ccccc3)ccc2O1,-6.1,-1.8
COCC(=O)Nc1ccc2c(c1)[C@@H]1C[C@H](CC(=O)OC)O[C@@H](CO)[C@@H]1O2,9.1,-2.5
CCCC#Cc1ccc([C@H]2[C@@H](CO)N3CCCCN(Cc4cccnc4)C[C@@H]23)cc1,-6.1,10.0
C[C@H](CO)N1C[C@H](C)[C@H](CN(C)S(=O)(=O)c2cn(C)cn2)OCCCC[C@H](C)Oc2ccc(NC(=O)Nc3ccc(F)cc3)cc2C1=O,15.9,41.8
CN(C)CCCNC(=O)C[C@@H]1CC[C@@H]2[C@@H](COc3ccc(NS(C)(=O)=O)cc3C(=O)N2C)O1,1.0,4.1
C[C@@H]1CCCCO[C@H](CN(C)C(=O)CCCN(C)C)[C@H](C)CN([C@@H](C)CO)C(=O)c2cc(NS(C)(=O)=O)ccc2O1,4.1,11.0
C[C@H](CO)N1C[C@H](C)[C@H](CN(C)Cc2ccncc2)Oc2ncc(-c3ccccc3)cc2C1=O,6.4,27.1
C[C@@H]1CCCCO[C@H](CN(C)S(=O)(=O)c2ccccc2)[C@H](C)CN([C@H](C)CO)C(=O)c2cc(NS(C)(=O)=O)ccc2O1,25.8,19.2
C[C@@H]1CCCCO[C@H](CN(C)C(=O)c2ccncc2)[C@@H](C)CN([C@H](C)CO)C(=O)c2cc(NS(=O)(=O)c3ccccc3)ccc2O1,12.1,28.2
COc1cc(CO)cc(I)c1O[C@H]1C=C(C(=O)NCCO)C[C@@H](N(CC2CCCCC2)C(=O)c2cc3ccccc3oc2=O)[C@@H]1O,-5.4,11.0
C[C@@H]1CCCCO[C@@H](CN(C)Cc2ccc(C(F)(F)F)cc2)[C@H](C)CN([C@@H](C)CO)C(=O)c2cc(N(C)C)ccc2O1,x,u
CNC[C@@H]1Oc2c(NC(=O)C3CCOCC3)cccc2C(=O)N([C@H](C)CO)C[C@@H]1C,1.7,0.8
C[C@H]1CN([C@@H](C)CO)C(=O)c2cccc(NC(=O)C3CCOCC3)c2O[C@@H]1CN(C)C(=O)Nc1ccccc1,6.1,5.6
COc1ccc(-c2ccc3c(c2)[C@H]2[C@H](CCN2C(=O)C2CCCCC2)[C@H](CO)N3C)cc1,x,u
C[C@H]1CN([C@@H](C)CO)C(=O)c2cccc(NC(=O)NC3CCCCC3)c2O[C@H]1CN(C)S(=O)(=O)c1ccc(Cl)cc1,x,u
CCCNC(=O)N1CC2(C1)[C@H](c1ccccc1)[C@@H](CO)N2Cc1ccc(Cl)cc1,2.2,-5.3
Cc1noc(C)c1NC(=O)N(C)C[C@@H]1OCCCC[C@H](C)Oc2ccc(NC(=O)c3ccncc3)cc2C(=O)N([C@H](C)CO)C[C@@H]1C,21.1,32.8
COc1ccc2c3c(n(C)c2c1)[C@@H](CO)N(C(=O)Nc1ccc(F)cc1)CC31CN(CC2CCOCC2)C1,-38.9,-30.5
COc1cc2c(cc1OC)CN(C(=O)[C@@H]1[C@H]3C(=O)O[C@H](c4ccccc4)[C@H](c4ccccc4)N3[C@H](c3ccc(OCCO)cc3)[C@@]13C(=O)Nc1ccc(C#CCNC(N)=O)cc13)CC2,19.8,5.7
COCC(=O)N1CC[C@@H]2[C@H]1c1cc(-c3cccc(OC)c3)ccc1N(C)[C@@H]2CO,-2.5,3.7
C[C@H]1CN([C@@H](C)CO)C(=O)c2cc(/C=C/c3ccccc3)cnc2O[C@H]1CN(C)Cc1cccc(C(=O)O)c1,18.6,25.8
COCC(=O)N(C)C[C@@H]1Oc2ncc(C#Cc3cccnc3)cc2C(=O)N([C@H](C)CO)C[C@@H]1C,-12.4,-4.6
CCCNC(=O)N1[C@H](CO)[C@H](c2ccccc2)[C@@H]1CNC(=O)C1CCCC1,15.4,19.6

# Among those listed so far, these contain a cyano group.
SMILES,Vaccinia inh Venus,Vaccinia inh
COCC(=O)N(C)C[C@@H]1Oc2ncc(-c3ccc(C#N)cc3)cc2C(=O)N([C@@H](C)CO)C[C@H]1C,6.9,12.8
COc1ccccc1-c1ccc([C@H]2[C@@H](CO)N(C(=O)C3CC3)[C@H]2C#N)cc1,10.9,9.5

# Following part.
SMILES,Vaccinia inh Venus,Vaccinia inh
CC(C)NC(=O)N(C)C[C@@H]1Oc2cc(-c3ccccc3)ccc2S(=O)(=O)N([C@@H](C)CO)C[C@H]1C,-0.9,9.8
O=C(C1CCCCC1)N1CC2(C1)[C@@H](c1ccccc1)[C@H](CO)N2Cc1ccccc1F,-5.9,-15.0
C[C@@H]1CN([C@@H](C)CO)S(=O)(=O)c2ccc(-c3ccccc3F)cc2O[C@@H]1CN(C)Cc1cncnc1,-10.9,-11.4
C[C@H]1CN([C@@H](C)CO)C(=O)CCCn2cc(nn2)CO[C@@H]1CN(C)Cc1ccc(C(=O)Nc2ccccc2N)cc1,2.7,4.9
C[C@@H](O)C#Cc1cnc2c(c1)C(=O)N([C@@H](C)CO)C[C@H](C)[C@@H](CN(C)C(=O)CN1CCOCC1)O2,8.5,2.0
O=C(C[C@H]1CC[C@H]2[C@@H](COC[C@H](O)CN2Cc2ccccc2F)O1)N1CCc2ccccc2C1,-18.8,-26.9
O=C(c1ccccc1F)N1CC[C@@H]2[C@H](CO)Nc3ccc(Br)cc3[C@@H]21,-11.7,-22.7
C[C@H](CO)N1C[C@H](C)[C@@H](CN(C)C(=O)Nc2ccc(C(F)(F)F)cc2)Oc2ccc(NC(=O)C3CC3)cc2CC1=O,-5.7,2.6
CCC(=O)Nc1ccc2c(c1)C(=O)N(C)C[C@@H](OC)[C@@H](C)CN(C(C)=O)[C@H](C)CO2,-2.8,3.4
CN1C(=O)c2cc(NC(=O)C3CC3)ccc2OC[C@@H]2O[C@H](CC(=O)NCc3ccccc3F)CC[C@@H]21,-3.9,-3.9
Cc1ccc(S(=O)(=O)N2CC[C@@H]3[C@H](CO)Nc4ccc(C#Cc5ccc(F)cc5)cc4[C@@H]32)cc1,-6.8,-26.1
CNC[C@@H]1Oc2ccc(NC(=O)CCN3CCOCC3)cc2CC(=O)N([C@@H](C)CO)C[C@H]1C,5.7,6.8
C[C@@H]1CN([C@@H](C)CO)S(=O)(=O)c2ccc(-c3ccc(C(=O)N(C)C)cc3)cc2O[C@H]1CN(C)C,-6.3,-2.9
CN1C(=O)c2cc(NC(=O)c3ccc(F)c(F)c3)ccc2OC[C@H]2O[C@@H](CC(=O)N3CCOCC3)CC[C@@H]21,6.9,3.5
COc1cccc(S(=O)(=O)N[C@H]2CC[C@@H](CC(=O)NCc3ccc(Cl)cc3)O[C@H]2CO)c1,0.3,-3.6
O=C(C[C@H]1CC[C@@H]2[C@H](COC[C@H](O)CN2C(=O)c2ccc(F)cc2)O1)Nc1ccc(-c2ccccc2)cc1,x,u
Cc1ccc(S(=O)(=O)N(C)C[C@@H]2OCc3ccccc3-c3ccccc3C(=O)N([C@@H](C)CO)C[C@H]2C)cc1,-9.8,-20.5
C[C@@H]1CCCCO[C@H](CN(C)S(=O)(=O)c2ccccc2)[C@@H](C)CN([C@H](C)CO)C(=O)c2cc(NC(=O)C3CCCCC3)ccc2O1,9.3,6.0
COc1ccc(-c2ccc3c(c2)[C@@H]2[C@@H](CCN2C(=O)CN2CCOCC2)[C@@H](CO)N3)cc1,-19.7,-25.4
C/C=C/c1ccc(C2[C@H]3CNC[C@@H]2N3CC2CC2)cc1 (stereo partly drawn),7.8,3.6
COCC#Cc1ccc2c(c1)O[C@@H](CN(C)C(=O)Nc1ccccc1F)[C@H](C)CN([C@@H](C)CO)S2(=O)=O,8.5,7.5
C[C@H]1CN([C@@H](C)CO)C(=O)c2cccc(NC(=O)Nc3ccc4c(c3)OCO4)c2O[C@@H]1CN(C)Cc1ccc(C(=O)Nc2ccccc2N)cc1,2.6,-0.9
CN1c2ccc(-c3cccc(F)c3)cc2[C@H]2[C@H](CCN2C(=O)Cc2ccccc2)[C@@H]1CO,-20.0,-20.6
C[C@H](CO)N1C[C@H](C)[C@@H](CN(C)Cc2ccc(Cl)c(Cl)c2)OCCCC[C@H](C)Oc2ccc(NC(=O)CCC(F)(F)F)cc2C1=O,x,u
CC(C)NC(=O)N(C)C[C@@H]1Oc2ccc(NC(=O)Cc3cn(C)c4ccccc34)cc2C(=O)N([C@H](C)CO)C[C@@H]1C,-6.2,-7.0
CN1C(=O)c2cc(NC(=O)c3ccc(F)c(F)c3)ccc2OC[C@@H]2O[C@@H](CC(=O)N3CCCCC3)CC[C@@H]21,-23.1,-26.7
CCCNC(=O)[C@H]1[C@H](CO)[C@H]2Cn3c(ccc(-c4ccccc4F)c3=O)[C@H]2N1C,-4.3,5.7
Cc1noc(C)c1NC(=O)Nc1ccc2c(c1)C(=O)N([C@H](C)CO)C[C@H](C)[C@H](CN(C)C(=O)Nc1ccc3c(c1)OCO3)O2,7.4,7.7
C[C@@H]1CN([C@@H](C)CO)C(=O)c2cc(NS(=O)(=O)c3ccc(F)cc3)ccc2O[C@@H](C)CCCCO[C@H]1CN(C)C(=O)Nc1cccc2ccccc12,11.1,31.6
O=C(C[C@H]1CC[C@H]2[C@@H](COC[C@@H](O)CN2S(=O)(=O)c2ccc(F)cc2)O1)NCc1ccc(Cl)c(Cl)c1,x,u
C[C@@H]1CN([C@H](C)CO)C(=O)c2cc(C3=CCCCC3)cnc2O[C@H]1CN(C)C(=O)Cc1cccnc1,-4.3,8.9
CCC(=O)Nc1ccc2c(c1)OC[C@H](C)NC[C@@H](C)[C@H](OC)CN(C)C2=O,1.4,5.0
COc1ccc(NC(=O)N(C)C[C@H]2Oc3ncc(C4=CCCC4)cc3C(=O)N([C@@H](C)CO)C[C@@H]2C)cc1,-13.4,-10.2

# Shown with each value named: two of the compounds above
COc1ccc(-c2ccc3c(c2)[C@@H]2[C@@H](CCN2C(=O)CN2CCOCC2)[C@@H](CO)N3)cc1
  Vaccinia inh Venus: -19.7 | Vaccinia inh: -25.4
O=C(C[C@H]1CC[C@H]2[C@@H](COC[C@@H](O)CN2S(=O)(=O)c2ccc(F)cc2)O1)NCc1ccc(Cl)c(Cl)c1
  Vaccinia inh Venus: x | Vaccinia inh: u

# Screening data deposited in PubChem BioAssay by Broad Institute.
